VDR inhibitor – Inhibitors of the vitamin D receptor (VDR): qHTS; Vitamin D3 receptor (Homo sapiens), P11473; VDR-SRC2-3 peptide fluorescence polarization, 2 h; Potency, µM, without a hit: max response, negative = inhibition, actives largely listed as inhibitors; 400,000 compounds, 0.93% hits; AID 504847, 2011; active means well fitted inhibition curve with a large enough effect; inconclusive means small, poorly fitted or top-dose-only effect, or another doubt; inactive means no such curve, though single readings can be large or run the other way; further: series mostly up to about 120 µM
Target sequence (P11473 whole entry, looked up): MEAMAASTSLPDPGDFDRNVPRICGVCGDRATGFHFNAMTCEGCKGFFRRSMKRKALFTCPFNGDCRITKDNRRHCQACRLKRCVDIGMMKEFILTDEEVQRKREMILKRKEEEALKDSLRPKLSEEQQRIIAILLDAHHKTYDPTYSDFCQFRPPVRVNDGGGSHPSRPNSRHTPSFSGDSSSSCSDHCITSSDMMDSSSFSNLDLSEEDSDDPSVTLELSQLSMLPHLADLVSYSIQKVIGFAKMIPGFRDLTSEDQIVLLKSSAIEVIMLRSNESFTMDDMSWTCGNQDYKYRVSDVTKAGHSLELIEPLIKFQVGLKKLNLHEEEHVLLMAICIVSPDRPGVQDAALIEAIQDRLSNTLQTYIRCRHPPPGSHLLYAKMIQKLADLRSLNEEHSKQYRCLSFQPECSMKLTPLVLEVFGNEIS
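Two reagent solutions held at 4 deg C in the dark were dispensed, compounds pinned at 23 nl, and the mixture incubated 2 h at room temperature. Read-out: fluorescence polarization of VDR–SRC2-3 peptide binding.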
* marks the source's active call; other numbers are inactive results; u = inconclusive; & = joins results of further samples. On the % scale 0 is the no-effect control and ±100 the full control effect; potency means the concentration at half of the fitted maximal effect. A portion of the library; the hit share may differ from the screen's.

VDR inhibitor	SMILES
10%	O=C(Nc1cccc(C(F)(F)F)c1)C(Sc1n[nH]c(=O)[nH]c1=O)c1ccccc1 (stereo not given)
-19%	CCCCn1c2nc3ccccc3nc2c2c(=O)n(CC(C)C)cnc21
15%	CNc1nc(Cl)c(SC)c(NCc2ccc(F)cc2)n1
6%	CCNc1nc(CC)nc2c1oc1ccccc12
4%	CCOc1ccc(C(=O)N2CCc3cc(OC)c(OC)cc3C2)cc1OCC
-11%	CCCCc1ccc(NC(=S)Nc2cccnc2)cc1
-9%	O=C(CSc1ncnc2ccccc12)Nc1ccc2c(c1)OCO2
25%	CN1CCN(C(=O)c2cc(COc3ccccc3)on2)[C@@H](c2ccccc2)C1
-5%	CC1=C(C)C(OCCCl)N(c2cc(O)c(Cl)cc2F)C1=O (stereo not given)
4%	CN(C(=O)CSc1nc2ccc(Br)cc2c(=O)n1Cc1ccco1)C1CCS(=O)(=O)C1 (stereo not given)
4%	COc1cccc(-c2coc3ccc(Br)cc3c2=O)c1
5%	CC1SCC(=O)N(CC(=O)Nc2ccc3c(c2)OCO3)C1=O (stereo not given)
-20%	CCOC(=O)C1=C(COC(=O)CNC(=O)c2cccc(C)c2)NC(=O)NC1C (stereo not given)
-15%	O=C(Cc1ccc(Cl)cc1)Nc1cccc(-c2nnc(-c3ccco3)o2)c1
-9%	c1ccc(N2CCN(c3nnc(Cc4cccnc4)c4ccccc34)CC2)nc1
9%	c1ccc(CN=C2NN=C(c3cc4ccccc4o3)CS2)cc1
15%	C=CCn1c(SCC(=O)Nc2ccccc2)nc2scc(-c3cccs3)c2c1=O
-15%	CCN(CC)C(=O)CSc1ncnc2sc(-c3ccccc3)cc12
u	COc1ccc(C(=O)NCc2ccc3c(c2)OCO3)c(OC)c1
-4%	O=Cc1c(Cl)nc2ccccn2c1=O
9%	CC(=O)Nc1ccc(S(=O)(=O)NCC(=O)OCC(=O)N2CC(C)OC(C)C2)cc1 (stereo not given)
2%	Clc1ccccc1/C=C/C=N/Nc1nc(N2CCOCC2)nc(N2CCOCC2)n1
-2%	O=C(NCCCN1CCOCC1)C(=O)N/N=C/c1ccccc1
-14%	O=C(O)C1=C[C@H](c2csc3ccccc23)C[C@H](OCCCCO)O1
-6%	COc1ccc(OCc2ccc(/C=N\NC(=O)c3sccc3C)o2)cc1
-3%	COc1ccc(C(=O)Nc2ccc(C)cn2)cc1S(=O)(=O)N1CCCc2ccccc21
8%	Cc1ccc(N2CC(C(=O)Nc3ccc(S(=O)(=O)Nc4nccs4)cc3)CC2=O)cc1 (stereo not given)
3%	CC(C)n1cnc2c(NCc3ccc(S(N)(=O)=O)cc3)nc(NCc3ccc(S(N)(=O)=O)cc3)nc21
-16%	Cc1nnc(C)n1/N=C/c1cccn1C
5%	CCc1ccc2c(CN3CCN(Cc4ccccc4)CC3)cc(=O)oc2c1
12%	COc1ccc(-c2csc(NC(=O)C3CCN(c4ncnc5sc(C)c(C)c45)CC3)n2)cc1OC
4%	O=c1[nH]c(=O)n(Cc2ccco2)c2c1C(C(F)(F)F)(C(F)(F)F)N=C(CCc1ccccc1)N2
26%	O=CN(Cc1nc2ccccc2[nH]1)c1ccc(C(=O)O)cc1
0%	Cc1ccc(S(=O)(=O)NC(=O)Nc2ccccc2)cc1
8%	CC(/C=N\N1CCN(Cc2ccc(C)cc2)CC1)=C\c1ccccc1
-17%	Cc1oc(-c2ccccc2)cc1C(=O)Nc1cccc(C(=O)O)c1
-14%	N#Cc1cc2c(nc1SCC(=O)Nc1sc3c(c1C#N)CCC3)CCC2
21%	COC(=O)c1c(-c2cccc3ccccc23)csc1NC(=O)Cc1ccc(OC)c(OC)c1
-18%	CC(=O)Nc1ccc(S(=O)(=O)N2CCN(C34CC5CC(CC(C5)C3)C4)CC2)cc1
u	c1ccc(OCc2nn3c(Cn4nnc5ccccc54)nnc3s2)cc1
3%	Cc1ccc(NC(=O)C2CCN(C(=O)c3ccc(Cl)cc3)CC2)nc1
14%	COc1cccc(CN2CCN(C(=O)c3ccco3)CC2)c1OC
-5%	CCCN(CCC)CC(O)Cn1cc(/C=C/C(=O)c2ccc(OC)cc2)c2ccccc21 (stereo not given)
4%	CC(NC(=O)Cc1ccc(S(=O)(=O)N2CCCCC2)cc1)c1ccccc1 (stereo not given)
-12%	O=C(c1ccc(F)cc1)c1ccc(CN2C(=O)c3ccccc3C2=O)o1
8%	COCCn1nnnc1C(c1cccc(OC)c1OC)N1CCN(C2CCCCC2)CC1 (stereo not given)
-8%	O=C(O)Cc1coc(-c2ccc(F)cc2)n1
-17%	Cc1nc(N2CCN(C)CC2)c2sc(=S)n(C)c2n1
8%	CNS(=O)(=O)c1ccc(CCC(=O)N2CCN(c3ccccc3OC)CC2)cc1
-6%	CN(C1CCCCC1)S(=O)(=O)c1cccc(C#N)c1
0%	CCOCCCNC(=O)C(c1ccc(Cl)cc1)N(Cc1cccs1)C(=O)CNC(C)=O (stereo not given)
-2%	COc1ccc(CCNC(=O)c2ccc(NS(=O)(=O)c3ccc4[nH]c(=O)[nH]c4c3)cc2)cc1OC
18%	COc1ccccc1-c1nn2c(=O)cc(CN3CCN(C(=O)Nc4ccc(C)cc4Cl)CC3)nc2s1
40µM*	Cc1cc(C)c2nc(NNC(=O)c3cc(=O)c4ccccc4o3)sc2c1
12%	OCCN1CCN(C(=S)NCCc2ccccc2)CC1
-9%	OC[C@@H](O)[C@@H](O[C@@H]1O[C@H](CO)[C@H](O)[C@H](O)[C@H]1O)[C@H](O)[C@@H](O)CO
-30%	Cc1onc(NC(=O)NC(=O)c2c(F)cccc2Cl)c1Br
7%	CSC1=NC(C)(C)C=C(/C=C/c2c(Cl)cccc2Cl)N1
45µM*	Cc1ccc(C)c(/C=C/C(=O)c2ccccc(=O)c2O)c1
-5%	CCCCn1c(N)c(N(CCOC)C(=O)CSc2nnc(-c3ccc(C(C)(C)C)cc3)n2N)c(=O)[nH]c1=O

Another view of some results above:
Molecule	VDR inhibitor
COc1ccc(CCNC(=O)c2ccc(NS(=O)(=O)c3ccc4[nH]c(=O)[nH]c4c3)cc2)cc1OC	-2%
COc1ccccc1-c1nn2c(=O)cc(CN3CCN(C(=O)Nc4ccc(C)cc4Cl)CC3)nc2s1	18%
Cc1cc(C)c2nc(NNC(=O)c3cc(=O)c4ccccc4o3)sc2c1	40µM*
OCCN1CCN(C(=S)NCCc2ccccc2)CC1	12%
OC[C@@H](O)[C@@H](O[C@@H]1O[C@H](CO)[C@H](O)[C@H](O)[C@H]1O)[C@H](O)[C@@H](O)CO	-9%
Cc1onc(NC(=O)NC(=O)c2c(F)cccc2Cl)c1Br	-30%

Continuation:
VDR inhibitor	SMILES
-13%	O=C(CCc1ccc(S(=O)(=O)N2CCOCC2)cc1)N/N=C/c1cccc(O)c1
17%	C=CCn1cc(/C=N\NC(=O)c2cc3c(ccc4ccccc43)o2)c2ccccc21
-16%	CCn1c(C)nnc1SCC(=O)Nc1ccc(C(C)=O)cc1
5%	O=c1c2ccccc2ncn1-c1ccccc1[N+](=O)[O-]
0%	CCOc1ccc2nc(SCC(=O)Nc3nonc3C)[nH]c2c1
-8%	Cc1c(Cl)cccc1NC(=O)CN1CCN(CCO)CC1
-17%	CCSc1nnc(N)s1
-1%	Cc1ccc(C)c(OCC(=O)N/N=C/c2c(C)nn(-c3ccccc3)c2Cl)c1C
4%	O=C(Cn1c(=O)n(CCC(=O)N2CCCCC2)c(=O)c2sccc21)NCc1ccccc1
12%	O=C(NCC(Cl)c1ccc2ccccc2c1)c1c(F)cccc1F (stereo not given)
-7%	Cn1c(CNC(=O)c2ccc(Cl)cc2)nnc1SCC(=O)NC1CCCC1
u	O=C(Oc1ccc2c(c1)O/C(=C\c1ccncc1)C2=O)c1ccccc1
-26%	Cc1cccc2nc(-c3ccccc3)nc(N3CCC(O)(c4ccc(Cl)cc4)CC3)c12
-11%	CCOC(=O)/C(C#N)=C/c1cc2ccccc2nc1N1CCOCC1
-6%	CC(C)(C)C(CO)NC(=O)c1ccc[nH]1 (stereo not given)
-2%	Cc1cccc(C)c1NC(=O)C1CCCN1S(=O)(=O)c1cccc2nsnc12 (stereo not given)
u	O=C(c1ccco1)N1CCN(C(=O)C2CCN(S(=O)(=O)Cc3ccccc3)CC2)CC1
0%	Cc1ccc(NC(=O)CN2C(=O)NC(C)(c3ccc4c(c3)OCO4)C2=O)cc1 (stereo not given)
-7%	c1ccc2c(c1)nc(Nc1ccc3c(c1)OCO3)c1nnnn12
-23%	CCOC(=O)CN1CC23C=CC(O2)C(C(=O)NCCc2ccccc2)C3C1=O (stereo not given)
5%	Cc1ccc(NC(=O)CSc2nc3n[nH]c(C)c3c(=N)n2-c2cccc(C)c2)cc1
1%	Cc1ccc(Nc2cc(C)nc(NCc3ccccc3)n2)cc1
-4%	O=C(N/C(=C/c1cccnc1)C(=O)N1CCOCC1)c1ccccc1Br
1%	COc1cc(C(=O)NNC(=O)COc2ccc(Cl)cc2)ccc1OCC(=O)N1CCOCC1

Part of the list above in order of formula weight, falling:
VDR inhibitor	SMILES
-26%	Cc1cccc2nc(-c3ccccc3)nc(N3CCC(O)(c4ccc(Cl)cc4)CC3)c12
5%	Cc1ccc(NC(=O)CSc2nc3n[nH]c(C)c3c(=N)n2-c2cccc(C)c2)cc1
-4%	O=C(N/C(=C/c1cccnc1)C(=O)N1CCOCC1)c1ccccc1Br
-23%	CCOC(=O)CN1CC23C=CC(O2)C(C(=O)NCCc2ccccc2)C3C1=O (stereo not given)
0%	Cc1ccc(NC(=O)CN2C(=O)NC(C)(c3ccc4c(c3)OCO4)C2=O)cc1 (stereo not given)
-7%	c1ccc2c(c1)nc(Nc1ccc3c(c1)OCO3)c1nnnn12
-6%	CC(C)(C)C(CO)NC(=O)c1ccc[nH]1 (stereo not given)

Following part.
VDR inhibitor	SMILES
-4%	CC(C/C=N/NC(=O)COc1cc(Cl)ccc1Cl)c1ccccc1 (stereo not given)
17%	CCOC(=O)CN(c1cccc(C(C)=O)c1)S(C)(=O)=O
14%	O=C(c1cccnc1)C1Cc2ccccc2C1=O (stereo not given)
-6%	CCc1ccc(OCc2nnc(SCC(=O)NC3CCCCC3)o2)cc1
-2%&-6%	O=c1ccc(-c2ccccc2)nn1Cc1ccc(F)cc1Cl
7%	CC(=O)Nc1cccc(C(=O)OC(C)C(=O)NC2CCCc3ccccc32)c1 (stereo not given)
-2%	CC(C)=C1SC(N2CCN(c3cccc(Cl)c3)CC2)=NC1=O
-15%	NC1=NC(=O)/C(=C/c2cn(CCC(=O)O)nc2-c2ccc(Cl)cc2)S1
6%	COCCNCC(O)CON=C1c2ccccc2-c2ccccc21 (stereo not given)
3%	CN(Cc1cnn(Cc2ccccc2)c1)C(=O)c1cccc(S(=O)(=O)N2CCOCC2)c1
-19%	Cc1ccc2[nH]c(C)c(CCN(Cc3cccnc3)C(=S)NC(C)(C)C)c2c1
14%	COc1ccccc1NC(=O)CN1CCN(C(=O)c2ccco2)CC1

Part of the list above in another layout.
O=C(NCCCN1CCOCC1)C(=O)N/N=C/c1ccccc1
  VDR inhibitor: -2%

O=C(O)C1=C[C@H](c2csc3ccccc23)C[C@H](OCCCCO)O1
  VDR inhibitor: -14%

Next section
VDR inhibitor	SMILES
-4%	CCOC(=O)C1=C(CC)OC(N)=C(C#N)C1c1ccc(OC)cc1OC (stereo not given)
-7%	COc1ccc(OCc2nnc(SC3CCOC3=O)n2-c2ccccc2)cc1 (stereo not given)
4%	Cc1cccc(N(C(=O)Cn2nnc(-c3ccccc3F)n2)C(C(=O)NC(C)(C)C)c2ccncc2)c1 (stereo not given)
5%	Cc1ccc(NC(=O)C(=O)NCC(c2cccnc2)N2CCOCC2)cc1C (stereo not given)
8%	C=CCN(CC(=O)NCc1ccccc1)C(=O)c1csnn1
-9%	COc1cccc(C(=O)NCCS(=O)(=O)N2CCN(C(=O)c3ccco3)CC2)c1
-10%	COc1ccccc1-n1cnc2cc(C(=O)NCC3CCCO3)ccc21 (stereo not given)
3%	CC(C)OC(=O)c1c(F)c(F)c(N2CCOCC2)c(F)c1F
16%	CN(C)NC(=S)NC1(C)CCS(=O)(=O)C1 (stereo not given)
u	C=CCOc1ccc(CNc2ccc(NC(=O)CCC)cc2)cc1OCC
35µM*	CO[C@H]1C([C@@]2(C)O[C@@H]2CC=C(C)C)[C@]2(CC[C@H]1OC(=O)/C=C/C=C/C=C/C=C/C(=O)O)CO2 (stereo not given in full)
9%	COc1ccc(-c2nc(C)c(CCNC(=O)c3c(F)cccc3F)s2)cc1
4%	CCOC(=O)c1cc2c(ccn2C)n1CC(=O)N1CCN(c2ccccc2)CC1
50µM*	CCCCOc1ccc(Cc2n[nH]c(=S)n2N)cc1
3%	NC1=NC[C@@H](Cc2ccc(O)cc2)N1CCc1cccc2ccccc12
0%	COc1ccc2[nH]c(C(=O)O)c(CCNC(=O)/C=C/c3ccc(O)c(OC)c3)c2c1
9%	Cc1cccc(C(=O)Nc2ccc3c(c2)C(=O)NC3=O)c1
-4%	CCC1=Nc2cc(C(=O)O)ccc2Sc2ccc(Cl)cc21
15%	COCn1c(=O)c2c(nc(SC3=NCCS3)n2Cc2ccccc2C)n(COC)c1=O
-8%	CCc1c(C)nc(SCc2cccnc2)[nH]c1=O
u	O=C(O)CSc1c(-c2cccs2)[nH]c2ccccc12
11%	Cc1cc(C)cc(NC(=O)CCc2c(C)nn(-c3ccc(N4CCCC4)nn3)c2C)c1
0%	O=C(O)CN(Cc1ccccc1)S(=O)(=O)c1ccc(F)cc1
-12%	CC(C)OC(=O)c1ccc(Cn2nnc3sc4c(c3c2=O)CCCC4)cc1
-20%	O=C(NCc1nnnn1-c1ccc(F)c(F)c1)c1cc2ccccc2o1
9%	O=C(N/N=C/C1C(c2ccccc2)C1(Cl)Cl)c1cccc(Br)c1 (stereo not given)
-21%	CCCc1cc(=O)oc2cc(OCC(=O)NCCCn3ccnc3)ccc12
-7%	CC(=O)OCCN(Cc1ccccc1)Cc1ccc2c(c1)OCO2

Compound activity as filed in PubChem BioAssay.
